miR-21 reporter = qHTS Assay for Modulators of miRNAs and/orActivators of miR-21 | HeLa miR-21 FLuc reporter, luciferase, 48 h | Potency, µM (titrated, usually from 38.3 µM), for inactives: top-dose reporter change, positive = more light | 340,000 tested, under 10 active; active = well fitted rising curve with a large enough effect; inconclusive = small, poorly fitted or top-dose-only effect; inactive = no such curve, though single readings can be large or run the other way;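 further: % of control where 0% means no effect; miR-21 action dims this reporter so a rising signal means less miR-21 action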
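HeLa cells stably expressing CMV-driven firefly luciferase with a downstream miR-21 binding sequence, endogenously expressing miR-21, were treated with titrations (up to about 40uM final) for 48 hours at 37 degree Celsius. Luciferase luminescence was read after lysis.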
GLA inh pH 4.5 = qHTS Assay for Inhibitors of Human alpha-Galactosidase at pH 4.5 | Alpha-galactosidase A (Homo sapiens), P06280 | purified enzyme, 4-MU-alpha-Gal fluorescence, pH 4.5 | activity change, negative = inhibition, % at 105 µM | 230,000 tested, under 10 active | AID 1467, 2008; inconclusive = small, poorly fitted or top-dose-only inhibition, or a rising curve; inactive = flat fitted curve, though single readings scatter; no compound was filed as active;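 further: 0% = full activity with enzyme and -100% = basal without enzyme; dose as in the result columns while the protocol names 77 µM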
Target sequence (P06280 whole entry, looked up): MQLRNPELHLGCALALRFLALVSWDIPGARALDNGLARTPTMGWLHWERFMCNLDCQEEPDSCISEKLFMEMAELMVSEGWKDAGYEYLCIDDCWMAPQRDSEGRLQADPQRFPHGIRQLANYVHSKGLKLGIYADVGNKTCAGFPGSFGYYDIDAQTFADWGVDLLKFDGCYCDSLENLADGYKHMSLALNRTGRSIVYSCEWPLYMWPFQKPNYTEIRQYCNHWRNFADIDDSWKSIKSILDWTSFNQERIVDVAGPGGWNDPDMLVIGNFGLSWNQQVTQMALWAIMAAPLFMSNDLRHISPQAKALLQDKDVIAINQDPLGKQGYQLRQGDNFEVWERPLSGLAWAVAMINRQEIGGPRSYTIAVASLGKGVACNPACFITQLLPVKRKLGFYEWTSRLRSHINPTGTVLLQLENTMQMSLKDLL
Rango-impB inh = qHTS Assay for Inhibitors of Rango (Ran-regulated importin-beta cargo) - Importin beta complex formation | 0.031% of 340,000 active | Potency, µM (series often up to 92.2 µM), for the others: at the top dose inhibition of complex formation | Importin subunit beta-1 (Homo sapiens), Q14974 | Rango CFP/YFP FRET sensor + importin beta, 45 min | AID 540263, 2011; active = rising FRET ratio curve, often small or poorly fitted; inconclusive = mostly compound fluorescence or quenching in the first reads; inactive = flat curves in all reads;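 further: potency means the concentration at half of the fitted maximal effect; 0% = DMSO wells and 100% = buffer wells lacking importin beta; nearly all actives have a fitted effect of over 15% in size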
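FRET biosensor Rango (snurportin 1 IBB between N-terminal EYFP and C-terminal Cerulean), 50 nM in PBS/1 mM DTT/0.02% Tween-20/0.1% BSA, preincubated 5 min RT with compound; 0.125 microM importin beta added, 45 min RT, CFP/YFP FRET ratio read.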
Rango release inh = qHTS Assay for Inhibitors of RanGTP induced Rango (Ran-regulated importin-beta cargo) - Importin beta complex dissociation | Snurportin-1 (Homo sapiens) + GTP-binding nuclear protein Ran (Homo sapiens) + Importin … | Biochemical FRET Rango-importin beta, RanGTP-induced dissociation | Potency, µM (highest dose often 46.1 µM), inactives show at the top dose activity change, negative = inhibition | 0.071% of 340,000 active | AID 540253, 2011; active means falling FRET ratio curve, often poorly fitted, with flat reads before Ran was added; inconclusive means other falling curves, or compound fluorescence or quenching; inactive means flat or rising ratio curve;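 further: potency means the concentration at half of the fitted maximal effect; % of control where 0% means no effect; nearly all actives have a fitted effect of over 45% in size; -100% = wells without RanGTP and RCC1; the record marks most hits as doubtful in a second field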
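Rango (0.1 uM)–importin beta (0.25 uM) complex; RanGTP-RCC1 trigger; 45 min RT; CFP/YFP FRET read.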
* marks the source's active call; other numbers are inactive results; ? = inconclusive; nt = no result given; & = joins results of further samples.

Compound | miR-21 reporter | GLA inh pH 4.5 | Rango-impB inh | Rango release inh
COc1ccccc1C1/C(=C(/O)c2ccc(C)cc2)C(=O)C(=O)N1CCN1CCOCC1 (centres undefined) | -4% | 5 | -1.3% | 15%
COc1ccc(C(=O)Nc2sc(C(=O)N(C)C)c(C)c2C#N)cc1[N+](=O)[O-] | -20% | -8 | 0.2% | -6%
Cc1[nH]c(SCC(=O)Nc2cc(S(C)(=O)=O)ccc2Cl)nc1Cc1ccccc1 | nt | nt | -0.1% | -10%
Cc1cn2c(N)c(C=C3C=C(Cl)C(=O)C(Cl)=C3)c(=O)nc2s1 | -2% | -22 | ? | ?
CC(=O)c1cccc(NC(=O)C(CC(C)C)NC(=O)C2CCCCC2)c1 (centres undefined) | -8% | -1 | -5.3% | 13%
CCOc1ccccc1NC(=S)N1CCN(c2ccc(O)cc2)CC1 | -9% | nt | -1.0% | -7%
CC1(C)CC(=O)C(C=NCC2CCN(C(=S)Nc3cccc(Cl)c3)CC2)=C(O)C1 | 4% | 2 | -1.0% | -4%
O=C(CCN1CCOCC1)Nc1ccc2c(c1)N(C(=O)CN1CCOCC1)c1ccccc1CC2 | -5% | -7 | 1.3% | -3%
COc1cccc(NC(=O)CN(C)CC(=O)Nc2ccccc2-c2ccccc2)c1 | 3% | 2 | 1.1% | -1%
O=C(Cn1ncc2c1-c1ccccc1OC2)N1CCN(Cc2ccccc2)CC1 | 16% | -12 | 3.9% | -7%
Cc1nn(-c2ccccc2)cc1/C=N/NS(=O)(=O)c1ccccc1 | -20% | 0 | 2.3% | 1%
O=C(CN1CCN(Cc2cccc3ccccc23)CC1)NCCc1ccccc1 | -7% | nt | -4.0% | 18%
CCOC(=O)C(O)(CC(=O)Nc1ccc(Cl)cc1Cl)C(F)(F)F (centres undefined) | -4% | 5 | 2.6% | -6%
CC(C)C(=O)Nc1ccc(C(=O)NNC(=O)c2ccco2)cc1 | 0% | -8 | 1.3% | -19%
CCCCOC(=O)c1ccc(NC(=O)c2nn(C)cc2Br)cc1 | -36% | 8 | -0.2% | -12%

Continuation:
Compound | miR-21 reporter | GLA inh pH 4.5 | Rango-impB inh | Rango release inh
O=C(CSc1n[nH]c(-c2cccnc2)n1)Nc1ccc([N+](=O)[O-])cc1 | 3% | nt | -0.4% | -4%
O=C(CCC1CCCC1)NCCS(=O)(=O)N1CCN(c2ccc(F)cc2)CC1 | nt | nt | -4.4% | 20%
Cc1ccc(C(C)C)c(OCC(=O)Nc2ccc3c(c2)nc(CCN2CCCCC2)n3C)c1 | ? | nt | 4.7% | 1%
O=C(O)C1CCCCC1C(=O)NCc1ccc(F)cc1 (centres undefined) | -11% | -10 | 1.4% | 1%
Cc1noc(C)c1COc1ccc(CC(=O)NCCc2ccccc2)cc1 | 2% | 2 | -1.1% | 4%
COc1cc(C(=O)NC(=S)Nc2ccc(Cc3ccncc3)cc2)cc(OC)c1OC | -2% | nt | -0.1% | 17%
O=C(NNC1=NCCC1)c1cccc(S(=O)(=O)N2CCCCC2)c1 | -4% | 2 | 0.4% | 36%
COc1cc(NC(=O)c2ccco2)c(OC)cc1NC(=O)CSc1ncc(-c2ccc(F)cc2)[nH]1 | 4% | 17 | 0.5% | 1%
Cc1nc(NC(C)c2ccccc2)sc1C(=O)Nc1ccccc1 (centres undefined) | -3% | 3 | 0.2% | -5%
CCOC(=O)c1sc(SC)c(C(C)=O)c1C | -9% | 5 | -0.1% | -7%
CC(C)n1cnc2c(Nc3ccc(F)c(Cl)c3)nc(NCCO)nc21 | -14% | nt | -0.7% | -27%
CC(=O)NCCn1c(SCC(=O)NC2CCCCC2)nc2ccccc2c1=O | 0% | 3 | 0.5% | 20%
CCCSc1nc2c(c(=O)n(C)c(=O)n2C)n1C | 1% | 1 | -1.1% | -20%
C=CCOc1ccc(C2CC(C)=NN2c2ccccc2)cc1 (centres undefined) | -3% | -5 | -5.7% | -15%
O=C(CNC(=O)c1ccco1)Nc1ccc(Cl)cc1 | -53% | nt | 3.6% | 8%

The closing two records of the part before open the next one.
Compound | miR-21 reporter | GLA inh pH 4.5 | Rango-impB inh | Rango release inh
C=CCOc1ccc(C2CC(C)=NN2c2ccccc2)cc1 (centres undefined) | -3% | -5 | -5.7% | -15%
O=C(CNC(=O)c1ccco1)Nc1ccc(Cl)cc1 | -53% | nt | 3.6% | 8%
CCN(C(=O)c1ccc2c(SCC(=O)O)c3c(nc2c1)CCC3)c1cc(Cl)ccc1OC | -4% | nt | -1.7% | 1%
O=C(C1=C[C@H](C2CCCCC2)C[C@H](OCc2ccc(CO)cc2)O1)N1CCOCC1 | -6% | -19 | 4.4% | -5%
FC(F)(F)c1ccc(Cl)c(NC(=S)N/N=C/c2ccccc2Cl)c1 | -2% | 2 | -0.7% | -3%
Cc1ccccc1NC(=O)C1CC(=O)OC12CCOC(C)(C)C2 (centres undefined) | 1% | 0 | 0.5% | -1%
CC(C)(C)c1ccc(NC(=O)COC(=O)c2ccc(NS(=O)(=O)c3ccc(F)c(F)c3)cc2)cc1 | -21% | -12 | -3.8% | -1%
CCCOc1ccc(C(=O)NC2CCSc3ccccc32)cc1 (centres undefined) | -11% | nt | 0.3% | 0%
Cc1ccc(S(=O)(=O)N2c3ccccc3OCC2C(C)(C)C)cc1 (centres undefined) | 19% | -5 | -0.4% | 0%
O=C(CCCCCNC(=O)N1CCn2c1nc1ccccc12)N[C@H](Cc1ccccc1)C(=O)O | 0% | nt | -1.7% | 2%
COc1cccc(/C=N/n2cnnc2)c1OCc1ccccc1 | -6% | 5 | -0.6% | 4%
COc1cc(OC)c(OC)cc1/C=N/NC(=O)CCc1c(C)n[nH]c1C | 5% | 1 | ? | -15%
CC(=O)OC1CCC2(C)C(CCC3C2CC(OC(C)=O)C2(C)C3C[C@@H]3O[C@]4(CC[C@@H](C)CO4)[C@@H](C)C32)C1 (some centres undefined) | nt | nt | 1.0% | -9%
CCCC(=O)NC(=S)Nc1ccc(S(=O)(=O)N2CCc3ccccc32)cc1 | nt | nt | 5.0% | 2%
Nc1nc2ccc(Br)cc2o1 | nt | nt | 1.7% | 2%
Nc1nc(-c2c[nH]c3ccccc23)cs1 | -1% | -1 | ? | -19%
Cc1ccccc1NC(NC(=O)OCCn1c([N+](=O)[O-])cnc1C)C(Cl)(Cl)Cl (centres undefined) | -7% | 0 | -2.1% | 0%

Fetched by compound from the list above:
Compound | miR-21 reporter | GLA inh pH 4.5 | Rango-impB inh | Rango release inh
CC(C)(C)c1ccc(NC(=O)COC(=O)c2ccc(NS(=O)(=O)c3ccc(F)c(F)c3)cc2)cc1 | -21% | -12 | -3.8% | -1%
COc1cc(OC)c(OC)cc1/C=N/NC(=O)CCc1c(C)n[nH]c1C | 5% | 1 | ? | -15%
COc1cccc(/C=N/n2cnnc2)c1OCc1ccccc1 | -6% | 5 | -0.6% | 4%
CCCOc1ccc(C(=O)NC2CCSc3ccccc32)cc1 (centres undefined) | -11% | nt | 0.3% | 0%
O=C(C1=C[C@H](C2CCCCC2)C[C@H](OCc2ccc(CO)cc2)O1)N1CCOCC1 | -6% | -19 | 4.4% | -5%
CCN(C(=O)c1ccc2c(SCC(=O)O)c3c(nc2c1)CCC3)c1cc(Cl)ccc1OC | -4% | nt | -1.7% | 1%
CCCC(=O)NC(=S)Nc1ccc(S(=O)(=O)N2CCc3ccccc32)cc1 | nt | nt | 5.0% | 2%

Continuation:
Compound | miR-21 reporter | GLA inh pH 4.5 | Rango-impB inh | Rango release inh
Cn1cc([N+](=O)[O-])c(C(=O)NCC(=O)O)n1 | 2% | -3 | 2.7% | 18%
Cc1oc(C(C)(C)C)cc1C(=O)NC(Cc1ccccc1)C(=O)O (centres undefined) | -1% | 2 | -3.0% | -9%
Cc1cccc(C)c1NC(=O)N1CCC(n2c(=O)[nH]c3ccccc32)CC1 | -1% | -1 | 1.5% | -5%
CC[C@]12c3[nH]c4ccccc4c3CCN1C(=O)C(CC(=O)NCCC1=CCCCC1)C[C@@H]2C(=O)N1CCN(C(=O)c2ccco2)CC1 (some centres undefined) | nt | nt | -1.9% | -2%
CNc1nnc(-c2cccc(N(C)C)c2)s1 | -58% | 0 | -0.9% | 12%
COc1ccc(C(=O)Nc2nnc(C3=COCCO3)o2)cc1OC | -3% | nt | 0.0% | -7%
O=C(Nc1ccccc1)N(C1=NCCCCS1)c1cccc2ccccc12 | -30% | -5 | -1.9% | 2%
CC(=O)Nc1ccc(NC(=O)C(C)Oc2ccccc2C(=O)NCc2ccccc2)cc1 (centres undefined) | nt | nt | 1.5% | 7%
COc1ccc(/C=C(\C#N)C(=O)OCC(=O)NCc2ccc(Cl)cc2)cc1 | 12% | 1 | nt | nt
CN(C)/C=C(/C(=O)c1ccccc1)n1cncn1 | -1% | -1 | 1.1% | 9%
COc1cc(/C=C2\N=C3CCCCCN3C2=O)ccc1O | -45% | -10 | ? | -17%
CCOc1ccc(OCC)c(NC(=O)C2CCN(c3cnccn3)CC2)c1 | -6%&-12% | nt | -1.3% | 5%
CC(C)CCNC(=O)C12CN(Cc3ccccc3)CC1C(c1ccc([N+](=O)[O-])cc1)=NO2 (centres undefined) | -6% | -19 | 0.4% | 5%
O=C(/C=C/c1ccco1)NC(=S)Nc1cccc(-c2nc3ccccc3o2)c1 | 14% | 1 | -4.3% | 13%
Cc1nn(CC(=O)N2CCc3ccccc32)c(C)c1S(=O)(=O)NC(C)(C)C | nt | nt | -4.4% | -2%

Going on with the list.
Compound | miR-21 reporter | GLA inh pH 4.5 | Rango-impB inh | Rango release inh
Cc1ccccc1CN1CCN(S(=O)(=O)c2ccc(Cl)s2)CC1 | -9% | nt | -1.0% | 14%
CCc1ccc(Nc2ncccc2C#N)cc1 | -26% | -7 | -0.9% | 1%
COCC(C)n1c(SC(C)C(=O)NC2CCCCC2C)nc2ccccc2c1=O (centres undefined) | -1% | nt | -0.7% | 4%
CN1CCN(C(=S)NC(=O)c2ccc(Cl)cc2)CC1 | -12% | 1 | -4.7% | 14%
CCCCNC(=O)C1(O)c2cc(Br)ccc2NC(=O)N1c1cccc(OC)c1 (centres undefined) | -1% | nt | 1.1% | 0%
COc1ccc(C2=NS(=O)(=O)N(C)C(C(=O)NCc3ccco3)=C2)cc1OC | -1% | nt | 0.8% | 8%
COc1ccccc1CN(C)C(=O)COC(=O)c1ccc(Cl)nc1 | nt | nt | 1.4% | ?
COc1ccc(NC(=O)COC(=O)CNC(=O)COc2ccccc2)cc1OC | nt | nt | -0.3% | 1%
Cc1ccc(S(=O)(=O)CCC(=O)OCC(=O)NCCc2ccccc2)cc1 | nt | nt | 7.3% | 5%
Cc1c(C(=O)Nc2cccc([N+](=O)[O-])c2)sc2ncn(CC(=O)N3CCOCC3)c(=O)c12 | 1% | nt | 3.3% | 14%
CCN1CCc2c(OCC(=O)N3CCc4ccccc43)cccc2C1=O | -7% | -3 | nt | nt
C[N+]1(C)CCCC(OC(=O)C(O)(c2ccccc2)c2ccccc2)C1 (centres undefined) | nt | -11 | -0.1% | 0%
COc1ccc(CNC(=O)C2CCN(S(=O)(=O)N3CCCC3)CC2)cc1 | -3% | nt | 3.4% | 0%
COCC(=O)OCC(=O)N1N=C(c2ccc(Cl)cc2)CC1c1ccco1 (centres undefined) | -17% | 4 | 4.7% | 7%
CCOC(=O)Cc1nn2c(=O)cc(C)nc2s1 | -2% | -11 | ? | ?
COc1ccc(-n2nc(C(=O)NCC(=O)Nc3cccc(Cl)c3)c3ccccc3c2=O)cc1OC | 7% | nt | ? | ?
C=CCNC(=O)c1n[nH]c2c1CC(C(C)(C)CC)CC2 (centres undefined) | nt | nt | -1.0% | -10%

These rows are one share of the data; the hit share may differ from the screen's.
